VACV Venus inh: inhibitors of vaccinia virus (Venus reporter). Vaccinia virus Venus reporter expression, fluorescence. Potency, µM (doses to about 36.5 µM), for the others: top-dose activity change, negative = inhibition, hits mostly inhibitors. 0.46% of 330,000 active. AID 720580; active means well fitted inhibition curve with a large enough effect; inconclusive means small, poorly fitted or top-dose-only effect; inactive means no such curve, though single readings can be large or run the other way; tested in A549 cells; further: nearly all actives have a fitted effect of over 30% in size; inactives centre near -10
VACV mCherry inh: inhibitors of vaccinia virus infection (mCherry reporter signal). Vaccinia virus mCherry reporter infection, fluorescence; about a quarter of the inactives have no number. Potency, µM (titrated, usually from 36.5 µM), without a hit: at the top dose activity change, negative = inhibition, most hits filed as inhibitors. 0.63% of 310,000 active; active = well fitted inhibition curve with a large enough effect; inconclusive = small, poorly fitted or top-dose-only effect; inactive = no such curve, though single readings can be large or run the other way; tested in A549 cells; further: nearly all actives have a fitted effect of over 35% in size; inactives centre near -10
* marks the source's active call; other numbers are inactive results; i = inactive; ? = inconclusive; · = no result given; [ ] = dose if it differs, or a comment. On the % scale 0 is the no-effect control and ±100 the full control effect; potency means the concentration at half of the fitted maximal effect.

Structure	VACV Venus inh	VACV mCherry inh
Cc1nn(C)c2c1c(-c1ccccc1)cc(=O)n2Cc1ccccc1C#N	-15.8%	-18.2%
O=C(c1cccc(F)c1)N(Cc1nc2ccccc2c(=O)[nH]1)C1CCCC1	-17.9%	?
CC1(C(=O)NCc2ccc(F)c(F)c2)Cc2c(-c3ccccc3)ccnc2O1 (stereo not drawn)	?	?
COc1ccc(-c2nc(CS(=O)(=O)CC(=O)Nc3ccc(Cl)cc3)c(C)o2)cc1	-1.2%	-7.4%
Cc1ccc(CN2CCC(CO)(CC3CCCCO3)CC2)o1 (stereo not drawn)	7.4%	-2.5%
CC(=O)c1csc(Nc2ccccc2Cl)n1	-5.9%[7.34 µM]	?
CCn1cc(C(=O)NCCc2ccccc2)c(=O)c2cc(S(=O)(=O)N3CCOCC3)ccc21	-18.4%	-16.8%
CCOCCCNCc1ccc(OC)cc1	-16.1%	-14.6%
O=S(=O)(c1ccc(Cl)cc1)N1CCN(Cc2ccncc2)CC1	9.2%	-8.5%
CCCCn1c(N)c(N(CC(C)C)C(=O)CSCc2c(C)noc2C)c(=O)[nH]c1=O	-0.8%	-10.5%
COc1ccc(OCc2cc(C(=O)N3CCN(C4CCCC4)CC3)no2)c(Cl)c1	-16.3%	?
CC(C)[C@H](CO)Nc1nc(Nc2ccc(Cl)c(C(=O)O)c2)c2ncn(C(C)C)c2n1	-9.7%	i
CCCN(CC1CC1)c1nc(C)nc(Nc2c(Cl)cc(Cl)cc2Cl)c1Cl	-11.7%	-18.4%
COc1cccc(/C=N\NC(=O)c2sc(N)nc2C)c1OC	-15.8%	-17.7%
CC(=O)Nc1c(C(=O)N2CCN(c3ccccn3)CC2)cnn1-c1ccc(C)cc1	0.6%	-8.0%
CCC(C)(c1nnnn1-c1c(C)cccc1C)N(N=O)c1ccccc1Cl (stereo not drawn)	-6.7%	-3.3%
CN(C)C(=O)c1ccc(-c2nccc(NCc3cccnc3)n2)cc1	11.9%	9.9%
COc1ccc(NC(=O)CN(c2ccc(C)cc2)S(C)(=O)=O)c(OC)c1	-10.8%	-11.2%
Cc1cccc(OCCn2c(-c3ccc(Cl)cc3)nc3ccccc3c2=O)c1	-4.0%	-6.5%
O=C(CSc1nnc(-c2c[nH]c3ccccc23)o1)c1ccccc1	0.2%	-6.4%
O=C(O)c1cnc(-c2ccccc2)nc1Oc1ccccc1	-9.3%	i
CCOC(=O)CN=C/C(C(=O)Nc1nccs1)=C(/C)O	-7.9%	-0.4%
COc1ccccc1C(=O)NCC(c1cccnc1)N1CCc2ccccc2C1 (stereo not drawn)	-10.2%	-7.2%
COc1ccc(CNc2nc3nc(-c4ccccc4)cc(=O)n3[nH]2)cc1OC	-9.2%	·
CCS(=O)(=O)Nc1ccc2c(c1)N(C(C)=O)c1ccccc1CC2	-4.1%	·

Record cards, from the list above.
O=S(=O)(c1ccc(Cl)cc1)N1CCN(Cc2ccncc2)CC1 is entered as VACV Venus inh: 9.2%; VACV mCherry inh: -8.5%
COc1ccc(OCc2cc(C(=O)N3CCN(C4CCCC4)CC3)no2)c(Cl)c1 is entered as VACV Venus inh: -16.3%; VACV mCherry inh: ?

Remaining list, next part.
Structure	VACV Venus inh	VACV mCherry inh
Cc1ccc(C2NC(c3ccc4c(c3)OCO4)=CC(c3cc(Br)ccc3O)N2)cc1 (stereo not drawn)	4.9%	-19.2%
O=C(O)c1ccc(Cl)c(S(=O)(=O)Nc2cccc(C(=O)Nc3cccc(C(F)(F)F)c3)c2)c1	-14.5%	-2.5%
CCOC(=O)c1sc(NC(=O)CSc2nc(-c3ccco3)cc(C(F)(F)F)n2)c(C#N)c1C	-7.1%	-2.9%
Cc1nnc(N/N=C/c2ccc(O)c([N+](=O)[O-])c2)[nH]c1=O	-1.1%	-9.1%
FC(F)(F)c1nnc(-c2ccccc2)nc1Sc1ccccc1	-4.9%	-4.8%
CCN1CCN(c2oc(-c3ccccc3)nc2S(=O)(=O)c2ccc(C)cc2)CC1	-16.7%	-2.0%
COc1ccccc1-n1c(SCC(=O)N2CCCC2)nc2cccnc21	-13.1%	?
CNC(=O)C[C@H]1C(=O)N(c2ccc(OC)cc2)C[C@@H]1C	1.1%	i
O=C(N/C(=C/c1ccccc1Cl)C(=O)N1CCCCC1)c1ccco1	-23.1%	-15.1%
NS(=O)(=O)c1nc[nH]c1[N+](=O)[O-]	-5.9%	-11.0%
Cc1c(Cc2ccccc2)sc(NC(=O)Cc2ccccc2)c1C(N)=O	-24.1%	-19.2%
CNCc1c(OCc2ccccc2F)ccc2ccccc12	-20.6%	-25.2%
C=CC[C@@H](CC(=O)N[C@H](CO)Cc1ccccc1)C(=O)NCCOC(=O)[C@@H](CC=C)Cc1ccc(F)cc1	?	-28.4%
Cn1c(=O)c2c(ncn2CC(=O)Nc2nnc(Cc3ccccc3)s2)n(C)c1=O	-3.7%	·
CC1(C)C2CCC1(CS(=O)(=O)N1CCC(C(=O)O)CC1)C(=O)C2 (stereo not drawn)	-10.3%	i
Cc1cc2oc(=O)cc(CN(Cc3ccccc3)Cc3ccccc3)c2cc1Cl	-1.1%	31.7%[activator]
O=C(CCCOc1ccc(Cl)cc1Cl)Nc1ccccn1	-3.0%	-1.3%
COc1ccc(OC)c(CCNC(=O)CS(=O)(=O)Cc2nc(-c3ccccc3C)oc2C)c1	-24.8%	?
O=C(Nc1nnc(-c2ccco2)o1)c1cccc(Cl)c1	-20.7%	-17.6%
CCOC(=O)c1nnsc1C(OC)Oc1ccccc1 (stereo not drawn)	-15.3%	-15.3%
COc1ccc2nc(NC(=O)C3CSC4(C)CCC(=O)N34)sc2c1 (stereo not drawn)	-18.4%	-18.6%
CC(C)(C)c1ccc(S(=O)(=O)N2CCN(CC(=O)NC(=O)NC3CCCCC3)CC2)cc1	-14.5%	-18.6%
CC(C)(C)C(=O)CN1CCN(S(=O)(=O)c2ccc(F)cc2)CC1	-21.4%	·
Cc1cccc(N2C(=O)NC(=O)/C(=C\c3cccn3-c3ccc(Cl)cc3)C2=O)c1	?	·
Cn1c(=O)[nH]c(=O)c2c1nc(SCCN1CCOCC1)n2Cc1ccccc1	-14.8%	?

The results go on.
Structure	VACV Venus inh	VACV mCherry inh
O=C(CN1C(=O)NC(Cc2ccccc2)C1=O)Nc1ccc(F)c(F)c1F (stereo not drawn)	-9.1%	i
COc1ccc(NC(=O)CSCc2cc(=O)c3cc(Cl)ccc3[nH]2)cc1	-0.4%	2.1%
CCC/C=C1/CCCOC(C(=O)NCCN2CCOCC2)(C(F)(F)F)C1 (stereo not drawn)	-0.3%	-12.4%
COc1ccc(C(CC(=O)NC(C)(C)C)n2cccc2)cc1 (stereo not drawn)	-7.2%	·
Cc1ccc(NC(=O)CCC(=O)NNC(=O)COc2ccccc2)c(C)c1	-7.1%	i
CC1CCN(C(=S)Nc2cccc(S(=O)(=O)N(C)C)c2)CC1	-13.0%	i
CCN1CCN(C(=O)c2ccc3c(Cl)c4c(nc3c2)CCCC4)CC1	-26.9%	-9.9%
COc1ccc(-c2nc(CSCC(=O)NCCC3=CCCCC3)c(C)o2)cc1OC	-25.7%	-29.3%
O=C(COc1ccc(F)cc1)NC1CC(=O)N(c2ccc3c(c2)OCCO3)C1 (stereo not drawn)	-1.8%	-2.2%
Cc1cc(C(=O)COC(=O)c2ccc(Cl)c(S(N)(=O)=O)c2)c(C)n1C1CC1	-19.3%	-6.8%
COc1ccc([N+](=O)[O-])cc1COc1cc(C)cc2oc(=O)cc(-c3ccccc3)c12	-5.2%	·
CC1=C(c2ccc(C)c(C)c2)S(=O)(=O)N=C1N1CCC(C(=O)NCc2ccc(N(C)C)cc2)CC1	-6.1%	-7.8%
Cc1ncoc1C(=O)N1CCCC(C(=O)Nc2cccc(-c3ccc(F)cc3)c2)C1 (stereo not drawn)	?	?
CC1CCCCN1C(=O)c1ccc(N2CC3CC(C2)c2cccc(=O)n2C3)c([N+](=O)[O-])c1 (stereo not drawn)	-1.2%	-17.1%
Cc1ccccc1NC(=O)CCC(=O)OCC(=O)c1cccc([N+](=O)[O-])c1	0.9%	-16.5%
COCCN(CCOC)S(=O)(=O)c1ccc(C(=O)Nc2nc(-c3ccccc3)c(C(=O)c3ccccc3)s2)cc1	-12.3%	i
Cc1cccc(CSCCNC(=O)Nc2ccccc2)c1	-18.2%	-17.7%
CCCCCn1cc2c(c1-c1ccc(Cl)cc1)c(=O)n(C)c(=O)n2C	-19.8%	-21.0%
Cc1oc(-c2cccc(Cl)c2)nc1CN(C)C1CCOC1 (stereo not drawn)	4.6%	i
FC(F)(F)c1ccccc1CN1CCN(Cc2ccccc2)CC1	-15.4%	i
COC(=O)C(CC(C)C)NC(=O)C(Cc1ccccc1)NC(=O)C1CCCN1C(=O)OC(C)(C)C (stereo not drawn)	3.6%	-4.3%
COc1ccc(-c2ccc(CCC(=O)O)n2NC(=O)c2cccs2)cc1	-4.5%	·
CCC(C)c1ccc(O)c(NC(=O)c2cccnc2)c1 (stereo not drawn)	-20.6%	-6.8%
CCCCn1c(N)c(N(CCOC)C(=O)COc2ccc(Cl)cc2)c(=O)[nH]c1=O	-4.0%	-3.7%
CC1CCN(c2nc3ccc(C(=O)NC(C)C)cc3s2)CC1	-17.0%	-16.2%

Next part.
Structure	VACV Venus inh	VACV mCherry inh
Cc1ccc2nc(NCCCO)[nH]c2c1	-11.6%	-18.5%
CCn1c(=O)c2cc(C(=O)Nc3cc(C)on3)sc2c2ccccc21	7.1%	-4.5%
Cc1cc(C(F)(F)F)nc(SCC(=O)Nc2c(C)n(C)n(-c3ccccc3)c2=O)n1	-1.4%	-14.6%
Cc1cc(C)c(S(=O)(=O)N2CCN(CCO)CC2)c(C)c1	-7.0%	-2.5%
CC1(C(=O)NS(=O)(=O)c2cccc(C#N)c2)CCN1C(=O)CCc1ccccc1 (stereo not drawn)	?	-29.4%
Oc1ccc(Cl)cc1C1=Nc2ccccc2N=C(c2ccco2)C1	-12.2%	i
Cc1ccc(-n2ncc3c(NCCCc4ccccc4)ncnc32)cc1	-0.5%	-12.5%
Cc1ccc(-c2c(C(=O)N/N=C/c3ccoc3)nnn2-c2nonc2N)cc1	-19.1%	-11.7%
COC(=O)c1cn(CC(=O)NCc2cccs2)c2ccccc12	-6.3%	i
CCN1C(=O)[C@@H]2[C@@H](c3ccc(-c4ccc(Cl)c(Cl)c4)c(OC)c3)N3CCC[C@@]3(C(=O)OC)[C@@H]2C1=O	?	-8.9%
COc1ccc(C)cc1NC(=O)C(=O)NCCc1csc2nc(-c3ccccc3F)nn12	9.8%	0.1%
COc1cc(C2NC(=O)CS2)cc(OC)c1OC (stereo not drawn)	-19.8%	i
Cc1ccc(S(=O)(=O)CC(=O)Nc2sc(C)c(C)c2C(N)=O)cc1	-6.9%	-29.3%
CCO[C@@H]1OC(C(=O)O)=C[C@H](C)[C@H]1CCCO	0.8%	i
O=C(O)/C=C/c1nc(-c2ccccc2)n2ccccc12	-1.4%	i
O=S(=O)(c1ccc2nc(N3CCN(c4ccccc4F)CC3)ccc2c1)N1CCCCC1	-10.6%	-11.6%
O=S(=O)(Nc1ccc2c(c1)OCO2)c1cccc(Br)c1	-3.8%	-24.4%
CCOC(=O)C1(C)CCN1C(=O)c1cc(C)oc1C (stereo not drawn)	5.4%	42.0%[activator]
CCOC(=O)C1CCN(C(=O)COC(=O)COc2ccc(Cl)cc2)CC1	-10.0%	i
CN=C1S/C(=C\c2cn(CC(=O)OC)c3ccccc23)C(=O)N1C	169.1%[activator]	179.4%[activator]
COc1ccccc1NC(=O)N(Cc1ccccc1)c1ccccn1	-22.4%	·
Cc1cc(/C=C2/SC(=O)NC2=O)c(C)n1-c1ccc(N2CCOCC2)cc1	-7.7%	-4.8%
Cc1nc2ccc([N+](=O)[O-])cc2nc1C	-10.3%	-4.2%
O=C(COC(=O)CNS(=O)(=O)/C=C/c1ccccc1)Nc1cccc2ccccc12	-8.9%	-19.1%
Cc1cc(C)nc(/N=C(\N)Nc2ccc(C)c([N+](=O)[O-])c2)n1	-23.3%	?

Reformatted: results already given.
Below each SMILES – VACV Venus inh | VACV mCherry inh
CN(C)C(=O)c1ccc(-c2nccc(NCc3cccnc3)n2)cc1
 : 11.9% | 9.9%
COc1ccc(NC(=O)CN(c2ccc(C)cc2)S(C)(=O)=O)c(OC)c1
 : -10.8% | -11.2%

New compounds follow
Structure	VACV Venus inh	VACV mCherry inh
Cc1cccc(CNC(=O)c2sc(=O)n(Cc3ccc(S(C)(=O)=O)cc3)c2C)c1	-4.1%	-4.7%
O=C(CCNS(=O)(=O)c1ccccc1F)N1CCN(C(c2ccccc2)c2ccccc2)CC1	?	-23.0%
CN1CCSc2ccc(C(=O)NCc3cccc(F)c3)cc21	-6.4%	7.8%
CCOc1c(Br)cc(/C=C2\C(=O)N(CCC#N)N=C2C)cc1OC	-8.9%	-8.7%
